Assay outcomes: PubChem BioAssay, National Center for Advancing Translational Sciences (NCATS)
Menin-MLL FL inh: menin-MLL binding inhibition, fluorescein peptide. Fluorescence polarization, fluorescein-MLL peptide displacement from menin. FP activity change, % at 61.4 µM. 290,000 tested, under 10 active; inconclusive = falling polarisation curve, or a change in total fluorescence; inactive = total fluorescence flat and polarisation flat or rising; no compound was filed as active; the % refers to the polarisation; negative = inhibition;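 also: % of control where 0% means no effect; inhibitors lower the polarisation; unlabelled MLL peptide was the positive control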
gsp antag: gsp mutant antagonism. Potency, µM (series often up to 76.9 µM), for inactives: at the highest dose activity change, negative = inhibition, hits mostly inhibitors. actives 0.4% (n = 340,000). gsp-mutant cells, cAMP HTRF, 30 min; control for the full effect not named in the record. AID 624288; active = falling curve of any shape with a large fitted effect; inconclusive = falling curve, mostly with a smaller effect; inactive = flat or rising curve; cell line not stated here;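 also: intracellular cAMP measured with PDE inhibitor Ro 20-1724 present during compound exposure; potency is read from the fitted curve at half-maximal effect; % is scaled to controls: 0 for no effect and ±100 for the full control effect; nearly all actives have a fitted effect of over 65% in size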
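HTRF cAMP measurement after 30 min RT detection following 30 min, 37C compound treatment alongside […] (added as 300 uM solution) in G418-selected cells seeded at 2000/well and grown 16–24 h.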
D2 PAM: potentiates the human D2 dopamine receptor allosterically; DiscoveRx D2 beta-arrestin cells, luminescence, 90 min; 100% = 57 uM dopamine signal; potentiation, % (test concentration not listed); actives 0.23% (n = 360,000); active = potentiation of 50% or more; inconclusive = 30% to 50%; inactive = 30% or less;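 also: compound concentration not given in the record; tested on top of an EC20 dose of dopamine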
Target sequence (P14416 whole entry, looked up): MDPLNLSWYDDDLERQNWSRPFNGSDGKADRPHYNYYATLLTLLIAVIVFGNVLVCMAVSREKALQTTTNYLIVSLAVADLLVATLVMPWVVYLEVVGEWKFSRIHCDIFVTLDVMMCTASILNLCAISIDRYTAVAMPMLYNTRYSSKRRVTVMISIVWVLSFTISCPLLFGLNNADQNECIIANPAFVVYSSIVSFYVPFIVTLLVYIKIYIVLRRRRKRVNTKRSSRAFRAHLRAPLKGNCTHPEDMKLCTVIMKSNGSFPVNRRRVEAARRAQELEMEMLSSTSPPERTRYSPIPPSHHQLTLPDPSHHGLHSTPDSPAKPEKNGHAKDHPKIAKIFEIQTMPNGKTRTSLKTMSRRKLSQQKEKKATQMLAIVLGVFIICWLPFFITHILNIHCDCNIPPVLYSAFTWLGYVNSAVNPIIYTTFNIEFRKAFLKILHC
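PathHunter beta-arrestin assay in DiscoveRx D2 cells. Compounds were added with an EC20 of dopamine (50 nM final) for 90 min at 37 deg C. Luminescence was read 1 h after detection reagent, with 57 uM dopamine as the EC100 control.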
TRPV1 potentiator: human TRPV1 potentiation; AID 540277; potentiation, % at 8.33 µM; TRPV1-expressing cells, Fluo-8 calcium influx, capsaicin EC20 potentiation; host cell line not named in the record; control for the full effect not named in the record; actives 0.02% (n = 320,000); Q8NER1; active means potentiation above 80%; inconclusive means 30% to 80%; inactive means below 30%; also: 0% is about no effect
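Fluo-8 calcium influx in TRPV1-expressing cells, kinetic read (ex 480/em 520 nm). Compound added and read 3 min for agonist activity, followed by capsaicin at EC20 final and 2 min further read for enhancement.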
gsp agonist: activates gsp, the McCune-Albright syndrome mutation | gsp mutant cells, cAMP HTRF, 30 min; control for the full effect not named in the record | Potency, µM (series often up to 76.9 µM), without a hit: at the top dose activation (cAMP increase), most hits filed as activators | actives 0.13% (n = 340,000); active = well fitted activation curve with a large enough effect; inconclusive = small, poorly fitted or top-dose-only effect, or another doubt; inactive = no such curve, though single readings can be large or run the other way; cell line not stated here;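 also: phosphodiesterase inhibitor Ro 20-1724 added with compounds to block cAMP breakdown; potency is read from the fitted curve at half-maximal effect; nearly all actives have a fitted effect of over 60% in size; about a fifth of the inactives were tested at one dose only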
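Cells stably selected in G418 were plated at 2000/well, grown 16-24 hr, then given compounds in DMSO with the PDE inhibitor […] (300 uM solution added) for 30 min at 37C; cAMP was read by HTRF.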
Sfp inh: blocks B. subtilis Sfp PPTase activity; Q9F4F7; Biochemical Sfp PPTase activity, qHTS; Potency, µM, without a hit: max response, negative = inhibition, usual class: inhibitors; actives 3.5% (n = 310,000); AID 1490; active = well fitted inhibition curve with a large enough effect; inconclusive = small, poorly fitted or top-dose-only effect, or another doubt; inactive = no such curve, though single readings can be large or run the other way;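 also: the enzyme is Sfp with the accession as filed and its product quenches rhodamine fluorescence; potency is read from the fitted curve at half-maximal effect; 0% = enzyme reaction without inhibitor and -100% = no enzyme wells; top concentration of the series not given in the record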
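Step 1, compound plus 15 nM Sfp-PPTase, 15 min, room temperature. Step 2, add rhodamine-CoA (5 uM) and BHQ-2-YbbR (12.5 uM). Step 3, read 525/598 nm fluorescence at 0 and 30 min.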
ClpP mod: qHTS Assay for Activators of ClpP. ATP-dependent Clp protease proteolytic subunit (Bacillus subtilis (strain 168)), P80244. purified B. subtilis ClpP, FRET peptide cleavage, 20 min. Potency, µM (series often up to 57.5 µM), without a hit: at the highest dose activity change, negative = active. actives 1.9% (n = 340,000); active = well fitted falling curve with a large enough effect; inconclusive = small, poorly fitted or top-dose-only effect; inactive = no such curve, though single readings can be large or run the other way; also: potency is read from the fitted curve at half-maximal effect; the source files actives as falling curves though it sought activators and does not explain the sign; nearly all actives have a fitted effect of over 65% in size; many hits overshoot -100%
Target sequence (P80244 whole entry, looked up): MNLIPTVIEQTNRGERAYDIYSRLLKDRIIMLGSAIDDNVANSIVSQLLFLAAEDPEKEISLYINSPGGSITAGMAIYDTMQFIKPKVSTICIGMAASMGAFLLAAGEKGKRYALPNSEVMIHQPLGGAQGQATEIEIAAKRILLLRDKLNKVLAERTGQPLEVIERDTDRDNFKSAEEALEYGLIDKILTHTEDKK
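FRET quenching reversal measured ClpP activation: 10 microg/mL B. subtilis ClpP at pH 8 with the FRET-FV decapeptide, read at 430 nm after 320 nm excitation. The 20-min minus 0-min signal was scaled between DMSO/no-enzyme wells and ADEP (5.8 microM final).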
Numbers without * were called inactive; ? = inconclusive; . = no result given; [ ] = remark or other dose.

SMILES	Menin-MLL FL inh	gsp antag	D2 PAM	TRPV1 potentiator	gsp agonist	Sfp inh	ClpP mod
CCOc1ccc(S(=O)(=O)NCc2ccc(F)cc2)c2cccnc12	-0.5	-11.1%	-18.0	-5.0	3.4%	22.0%	25.1µM*
CCOc1ccc(C(=O)NC(C(=O)NCc2ccccn2)C(C)C)cc1 (stereo not given)	-6.4	19.9%	-11.4	1.6	-18.6%	22.9%	1.1%
COCCN(C(=S)Nc1ccc(C)cc1C)C(C)c1cccs1 (stereo not given)	1.9	-0.1%	-14.4	4.5	-12.6%	8.8%	-0.6%
CC(C)(C)c1cc[n+](-c2nc([O-])sc2C=O)cc1	-2.6	14.4%	-9.4	4.9	2.1%[15.4 µM]	25.5%	.
O=C(OCC(=O)N(C1CCCCC1)C1CCCCC1)c1cnccn1	2.5	-16.6%	-4.0	-14.9	1.6%	-0.1%	0.3%
COc1ccccc1NC(=O)CSc1ncnc2c1oc1ccccc12	2.9	16.4%	-3.7	29.7	-10.7%	15.6%	4.1%
Nc1nc(NCCCN2CCOCC2)nc(Nc2ccc(Cl)cc2)c1[N+](=O)[O-]	3.4	1.1%	-4.6	24.5	-6.6%[15.4 µM]	9.9%	.
O=C(COC(=O)c1cc(S(=O)(=O)N2CCOCC2)ccc1O)NCC1CCCO1 (stereo not given)	1.7	-6.5%	12.5	-0.5	-26.5%	9.2%	35.5µM*
CC(C)Cn1c(N)c(C(=O)COC(=O)c2ccc([N+](=O)[O-])o2)c(=O)n(C)c1=O	0.9	.	?	-4.5	-5.3%[15.4 µM]	17.4%	.
O=C(NC1CCCC1)c1cc2ccccc2o1	.	-5.0%	-13.7	-10.9	12.8%	0.2%	-2.8%
Cc1ccc(NC(=O)COc2ncnc3cc([N+](=O)[O-])ccc23)cc1S(=O)(=O)N1CCOCC1	1.4	-11.0%	1.2	18.9	25.9%	4.6%	-0.8%
COc1cccc(CN2CCNC(=O)C2CC(=O)NCc2cn3ccccc3n2)c1OC (stereo not given)	-10.0	-13.7%	-2.1	7.8	-18.8%[15.4 µM]	-1.7%	.
CCOc1ccc(-c2[nH]nc3c2C(c2cccnc2)C(C#N)=C(N)O3)cc1 (stereo not given)	1.4	-0.4%	17.0	-4.9	?	-7.0%	1.2%
C=CCN1C(=O)C(=O)N(CC(=O)NCC(=O)Nc2ccc(F)c(F)c2F)C1=O	.	0.8%	-2.6	.	-17.0%	.	-5.4%
COc1ccc(Cl)cc1Nc1nc(N)nc(C(F)(F)F)n1	4.1	-11.7%	-8.8	-7.7	-2.2%	13.2%	0.3%
COC(=O)[C@@H]1Cc2c([nH]c3ccccc23)C2CCC(=O)N21 (stereo not given in full)	2.1	13.4%	-4.2	-6.1	-4.7%[15.4 µM]	17.3%	-0.1%
O=c1oc(Nc2cccc(F)c2)nc2ccccc12	-0.8	17.3%	-4.4	9.2	32.5%	17.5%	-2.9%
Cc1ccc(NC(=O)c2ccc(OCC3CCCO3)cc2)c(C)c1 (stereo not given)	2.8	7.5%	-10.3	-4.0	12.8%	12.2%	-2.5%
CCCCc1c(O)nc(SCC(=O)c2ccccc2)n(-c2ccccc2OC)c1=O	2.6	-5.5%	-3.0	-10.7	6.2%[15.4 µM]	-12.9%	.
O=C(CCN=C1NS(=O)(=O)c2ccccc21)Nc1ccc(Cl)cc1F	.	-32.2%	-2.8	?	?	.	-0.5%
CS(=O)(=O)c1ccc(C(=O)N2CC(=O)Nc3ccccc32)cc1	7.6	4.5%	3.7	3.0	-6.9%[15.4 µM]	7.2%	.
O=C(O)c1ccc(N/N=C/c2cn(Cc3ccccc3F)c3ccccc23)cc1	-0.8	4.1%	7.8	-32.1	11.4%	?	0.0%
O=C(NC1CCN(S(=O)(=O)c2ccc(Cl)cc2)CC1)c1cccnc1	-2.5	-21.2%	-9.7	-11.0	2.5%[15.4 µM]	0.3%	.
CNC(=O)Cn1nc(C)c(S(=O)(=O)N2CCOCC2)c1C	.	10.7%	14.0	.	5.3%	.	-0.3%
N#Cc1nc(Cc2cccc3ccccc23)oc1NCCCn1ccnc1	7.9	3.9%	0.8	-3.3	?	-23.1%	-4.1%
The list goes on.
SMILES	Menin-MLL FL inh	gsp antag	D2 PAM	TRPV1 potentiator	gsp agonist	Sfp inh	ClpP mod
CC(=O)c1ccc(N2CCN(C(=O)c3cccc(Oc4ccccc4)c3)CC2)cc1	-0.4	?	-1.6	-16.3	-0.7%[15.4 µM]	-15.6%	.
Cc1cccc(NC(=O)CCN2CC(C)CC(C)C2)c1 (stereo not given)	-1.1	15.4%	-2.0	5.7	-4.8%	-5.6%	-0.1%
COCCCNC(=O)CCn1c(=O)c2ccccc2n(Cc2cccc([N+](=O)[O-])c2)c1=O	1.4	4.1%	-4.7	?	26.2%[15.4 µM]	-8.5%	.
Cc1cc(OC(C)C)nc(-c2ccccc2O)n1	4.8	-8.2%	-5.7	0.5	-43.6%[inhibitor]	-0.8%	-1.7%
CCCN1C(=O)/C(=C/c2nc3ccccc3c(=O)[nH]2)c2ccccc21	-0.3	-6.6%	-9.2	2.5	0.2%	-31.3%	-0.9%
O=C(NCCc1c[nH]c2ccccc12)c1cncc(Br)c1	2.0	-13.6%	-14.2	?	19.6%[15.4 µM]	3.7%	-0.9%
CCO[C@@H]1OC(C(=O)O)=C[C@H](c2ccc(C(F)(F)F)cc2)[C@H]1CCCO	1.3	-4.7%	-4.8	-1.9	.	?	1.4%
COc1ccc(NC(=O)CSc2nc(-c3ccco3)nc3cc(=O)[nH]n23)cc1Cl	.	?	-2.1	2.5	16.4%	-11.3%	-2.4%
CCOc1cc(C(=O)Nc2ccc(F)cc2)cc(Br)c1OC	.	-8.5%	-17.1	-10.8	16.3%	16.8%	.
Cc1cccnc1NC(=O)c1ccc(OCC2CCCO2)cc1 (stereo not given)	.	-3.2%	-11.0	-5.7	25.7%	.	-11.7%
CC(CCc1ccccc1)NC(=O)C1CCC1 (stereo not given)	.	19.1%	-1.5	.	-8.2%[15.4 µM]	.	0.6%
O=C(COc1ccccc1C(=O)O)Nc1cccc2ccccc12	.	-6.6%	-1.4	.	1.8%	.	-3.7%
CCOC(=O)c1c(NC(=O)C2=C(C)NC(=S)NC2c2ccc(F)cc2F)sc(C)c1C (stereo not given)	7.3	-18.8%	-29.9	5.8	15.4%	-8.5%	-5.5%
Cc1ccc(S(C)=O)cc1-n1c(=O)n(Cc2ccccc2)c(=O)c2[nH]cnc21 (stereo not given)	2.2	2.9%	-34.9	-20.4	-61.9%[inhibitor]	-22.4%	.
O=C(Cn1ccc2cc(S(=O)(=O)N3CCCC3)ccc21)NCc1ccccc1	2.6	-4.4%	-6.3	-7.5	-10.4%	9.3%	.
COc1ccccc1-n1nnnc1SCc1cc2c(cc1Br)OCO2	-2.5	-8.2%	-13.6	-13.2	-34.8%[inhibitor]	11.6%	-5.9%
CCOc1ccc(S(=O)(=O)NCc2ccc3c(c2)OCO3)cc1	0.9	-2.7%	-0.2	-6.4	18.1%	22.2%	-1.7%
CCOC(=O)N1CCC(NC(=O)c2cc(C(=O)NCc3ccc(F)cc3)ccc2CO)CC1	-1.3	-2.9%	-1.6	-4.3	-38.5%[inhibitor]	12.5%	-1.4%
CCCOc1ccc(/C=C/C(=O)N2CCN(C(=O)c3ccco3)CC2)cc1OC	.	.	12.8	.	-19.8%	.	3.7%
Cc1onc2c(=O)n(-c3ccccc3)nc(-c3ccccc3)c12	-1.6	-7.6%	-2.5	0.3	9.1%[15.4 µM]	18.2%	-0.4%
Cc1ccc(S(=O)(=O)c2nc(Nc3ccccc3N3CCOCC3)sc2Cl)cc1	0.5	-29.5%	-4.0	3.4	6.0%	-8.5%	-3.0%
CC(=O)Nc1ccc(S(=O)(=O)NCCC(=O)OCc2csc(CC(=O)Nc3ccccc3C)n2)cc1	.	-2.8%	0.3	4.3	19.9%[15.4 µM]	.	.
Cc1ccc(C(=O)Nc2cccnc2)cc1Cl	-2.0	8.6%	-8.2	-2.9	-7.6%[15.4 µM]	4.0%	-2.0%
OC(C#CCN1CCCC1)c1ccccc1 (stereo not given)	-0.4	-2.2%	-3.4	6.3	11.8%	6.5%	0.1%
CC(=O)c1ccc(N2CCN(C(=O)c3ccc(Br)cc3)CC2)c(F)c1	-0.4	-2.1%	-18.1	?	20.6%	0.7%	-0.9%
Following part:
SMILES	Menin-MLL FL inh	gsp antag	D2 PAM	TRPV1 potentiator	gsp agonist	Sfp inh	ClpP mod
O=C(O)c1ccc2c(=O)n3c(nc2c1)/C(=C/c1ccc(Cl)cc1Cl)CC3	7.1	-0.5%	-6.3	6.3	12.3%	3.0%	4.0%
CCCNC(=O)C1(CC2CC(c3ccccc3)=NO2)CCN(C(=O)Cc2ccc(F)cc2)CC1 (stereo not given)	.	-5.1%	-8.0	.	20.1%	.	-2.3%
Cn1cc(CN2CCCC(C(=O)Nc3cccc(-c4cc5ccccc5[nH]4)c3)C2)cn1 (stereo not given)	.	-10.2%	-6.3	-0.4	1.3%[15.4 µM]	-10.9%	-1.5%
COC(=O)c1sc2ccccc2c1NC(=O)c1ccc(S(=O)(=O)N2CC(C)CC(C)C2)cc1 (stereo not given)	2.6	-3.8%	-20.0	1.8	-3.4%[15.4 µM]	-3.2%	37.3%
CCN(C(=O)COC(=O)c1cc2ccccc2cc1OC)c1c(N)n(Cc2ccccc2)c(=O)[nH]c1=O	.	-7.1%	-4.8	.	-12.2%	.	3.8%
CCOc1ccc(C(=O)OCC(=O)N2CCCC2)cc1	-1.1	4.0%	-8.7	-8.1	9.9%[15.4 µM]	19.5%	.
OCCN1CCOCCOc2ccccc2OCCOCC1	-0.9	-6.5%	11.8	17.0	-4.5%	24.1%	-1.8%
O=c1c2c([nH]c3ccccc13)C(=C1CCCC1)CC2	2.3	-1.1%	-23.0	-8.4	-7.2%	-6.3%	?
CCOC(=O)[C@@H]1[C@H]2COc3ccccc3[C@@H]2N2C(=O)N(c3cccc(C)c3)C(=O)[C@@]12C	.	0.7%	-19.5	.	-5.8%	.	0.3%
Cc1ccc(S(=O)(=O)N2CCN(C(=O)COC(=O)CC(C)c3ccccc3)CC2)c(C)c1 (stereo not given)	.	4.1%	3.0	9.8	-0.9%[15.4 µM]	.	-0.1%
